RGS16-Gao HTS: RGS16-Galphao interaction regulator (human); O15492+P09471; bead-based flow cytometry RGS16-Galphao binding, fluorescence; actives lie on both sides; binding response (% of control), % at 10 µM; 220,000 tested, 0.38% active; AID 1441;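 active = below 25% or above 175%, edge rows of some plates excepted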;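 also: Galphao activated by GDP with aluminum fluoride before binding; 100% = wells without compound and 0% = beads without RGS; some results beyond the cut were filed as inactive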
Target sequence (O15492 whole entry, looked up): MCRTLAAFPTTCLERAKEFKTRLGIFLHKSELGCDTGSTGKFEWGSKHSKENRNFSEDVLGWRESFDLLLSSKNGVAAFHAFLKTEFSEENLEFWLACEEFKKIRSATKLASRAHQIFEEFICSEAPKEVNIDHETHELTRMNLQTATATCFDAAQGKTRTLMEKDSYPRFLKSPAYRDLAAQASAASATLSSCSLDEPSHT
Target sequence (P09471 whole entry, looked up): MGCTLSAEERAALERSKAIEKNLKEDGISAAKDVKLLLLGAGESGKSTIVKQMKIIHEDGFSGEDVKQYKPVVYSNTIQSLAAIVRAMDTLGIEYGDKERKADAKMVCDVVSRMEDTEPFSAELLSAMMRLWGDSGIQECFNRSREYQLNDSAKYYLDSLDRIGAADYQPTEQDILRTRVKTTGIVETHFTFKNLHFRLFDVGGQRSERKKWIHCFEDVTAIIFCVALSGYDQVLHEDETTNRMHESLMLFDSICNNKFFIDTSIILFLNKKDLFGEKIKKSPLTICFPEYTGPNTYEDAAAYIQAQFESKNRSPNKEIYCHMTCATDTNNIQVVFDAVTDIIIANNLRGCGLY
PKD1 kinase inh: inhibitors of human PKD1 kinase. Q15139. 200,000 tested, 0.056% active. AID 797. PKD1 kinase fluorescence polarization assay. inhibition, %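 (about 10 µM by stock and volumes)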;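 active = inhibition of 50% or more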;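 also: controls were vehicle for no effect and a reference inhibitor for full effect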
GALR2 ag: agonists of human galanin receptor 2 (GALR2); O43603; GALR2-expressing cells, agonist activation read-out; activation, %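 (tested at 5 µM)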; 140,000 tested, 0.48% active;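 active = above mean plus 3 SD of all compounds, about 5% in these data, not always enough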;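 also: 0% = vehicle buffer wells and 100% = reference agonist at full effect; tested in CHO reporter cells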
Target sequence (O43603 whole entry, looked up): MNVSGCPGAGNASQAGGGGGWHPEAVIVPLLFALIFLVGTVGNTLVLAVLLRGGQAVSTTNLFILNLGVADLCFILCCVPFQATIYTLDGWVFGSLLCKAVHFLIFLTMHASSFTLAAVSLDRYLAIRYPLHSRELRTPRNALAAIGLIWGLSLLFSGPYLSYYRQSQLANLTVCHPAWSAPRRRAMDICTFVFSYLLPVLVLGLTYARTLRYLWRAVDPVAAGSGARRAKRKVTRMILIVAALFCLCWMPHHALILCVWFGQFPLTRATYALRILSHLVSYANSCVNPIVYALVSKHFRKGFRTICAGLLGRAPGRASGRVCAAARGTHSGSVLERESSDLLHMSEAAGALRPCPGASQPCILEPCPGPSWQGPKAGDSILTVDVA
HSV replic up: HSV replication enhancement; 220,000 tested, 0.005% active; HSV replication augmentation in cells, fold increase; maximum fold increase;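 active = peak rise of 1.5-fold or more in the series; inconclusive = self-fluorescent or not available for retest; tested in PC3 cells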;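 also: first round at 10 µM; read as green reporter fluorescence; hits show the peak of a series up to 25 µM; 1 = signal of infected wells without compound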
INS promoter inh: TRM-6 insulin promoter activity inhibition. TRM-6 cells (human fetal islet line), insulin promoter-eGFP reporter, imaging; reporter expression induced with tamoxifen. inhibition, % at 2 µM. 130,000 tested, 0.9% active;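 active = inhibition above the mean plus 3 SD, with well images judged a real hit on visual review, cut at about 60% in these data, passing the limit was not always enough; inconclusive = inhibition over the cutoff but images rejected on review; inactive = inhibition not above the cutoff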
INS promoter inh cell count: recorded beside INS promoter inh, whose call it bears; normalized cell count, %; measured here: cell count, toxicity; reference of the scale not given here;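 cells exposed to compound for 48 h; stained nuclei by imaging scaled within each plate; lower means fewer cells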
HSV replic up primary fold: second read-out of HSV replic up, no call of its own (marks repeat the call); fold increase; compound at 10 µM; measured here: primary screen fold increase 10 uM; tested in PC3 cells;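 GFP signal in the first replicate; 1 = infected wells without compound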
Starred values were filed as active, the others as inactive. Not a hit list; about 1.3% have a hit in one of these screens.

Screening CCOC(=O)C(/C(C)=N/NC(=O)c1ccccc1[N+](=O)[O-])C(C)C (stereo not given) returned RGS16-Gao HTS 98, PKD1 kinase inh -13, GALR2 ag -2.8, HSV replic up inactive and HSV replic up primary fold 0.78.
`CCCn1c(-c2cccc([N+](=O)[O-])c2)nc2c1c(=O)[nH]c(=O)n2Cc1ccccc1` gave RGS16-Gao HTS 95, PKD1 kinase inh -2, GALR2 ag 1.8, HSV replic up inactive, INS promoter inh 32, INS promoter inh cell count 111 and HSV replic up primary fold 0.93.
Screening O=C(OCCNC(=O)c1ccc2ccccc2n1)c1cccnc1 returned RGS16-Gao HTS 91, PKD1 kinase inh 8, GALR2 ag -0.2, HSV replic up inactive, INS promoter inh -16, INS promoter inh cell count 121 and HSV replic up primary fold 0.97.
Cn1c(=O)c(Nc2ccc(Cl)cc2)c2c3c(cccc31)C(=O)c1ccccc1-2 was read as RGS16-Gao HTS 110, PKD1 kinase inh 14 and HSV replic up inconclusive.
CCCCCOC(=O)Cn1c(SCC(=O)Nc2ccccc2)nc2c1c(=O)[nH]c(=O)n2C was read as RGS16-Gao HTS 102, PKD1 kinase inh -11, GALR2 ag 0.9, HSV replic up inactive, INS promoter inh -17, INS promoter inh cell count 71 and HSV replic up primary fold 0.96.
`Cc1ccccc1N(CC(=O)N/N=C/c1ccc(Cl)cc1)C(=O)c1ccccc1` gave RGS16-Gao HTS 96, PKD1 kinase inh -4, GALR2 ag -1.1, HSV replic up inactive, INS promoter inh 53, INS promoter inh cell count 93 and HSV replic up primary fold 0.74.
Cc1cccc(C)c1NC(=O)COC(=O)c1ccccc1Nc1ccccc1 was read as RGS16-Gao HTS 108, PKD1 kinase inh 6, GALR2 ag -1.2, HSV replic up inactive, INS promoter inh -20, INS promoter inh cell count 58 and HSV replic up primary fold 1.
Cc1nnc(NC(=O)c2ccc3ccccc3n2)s1 was read as RGS16-Gao HTS 97, PKD1 kinase inh 12, HSV replic up inactive and HSV replic up primary fold 1.1.
For O=C(Nc1nc(=O)c2ccccc2s1)c1ccc(Cl)cc1 the results were RGS16-Gao HTS 98, PKD1 kinase inh -11, GALR2 ag -3.7, HSV replic up inactive, INS promoter inh 29, INS promoter inh cell count 48 and HSV replic up primary fold 0.85.
`COc1cc2c(cc1OC)C1(CCCC1)CNC2C` (stereo not given) gave RGS16-Gao HTS 30, PKD1 kinase inh -12, GALR2 ag -1.3, HSV replic up inactive, INS promoter inh 22, INS promoter inh cell count 104 and HSV replic up primary fold 1.
`CCOc1ccc(OCCCCOc2ccccc2C(C)=O)cc1` gave RGS16-Gao HTS 165, PKD1 kinase inh -10, GALR2 ag -0.2, HSV replic up inactive, INS promoter inh 3, INS promoter inh cell count 69 and HSV replic up primary fold 1.
`CCOc1ccc2c(=O)c(-c3ccc4c(c3)OCCCO4)c(C)oc2c1` gave RGS16-Gao HTS 117, PKD1 kinase inh 17, GALR2 ag -3.0, HSV replic up inactive, INS promoter inh -42, INS promoter inh cell count 53 and HSV replic up primary fold 0.91.
CCCCc1c(O)nc2ccccn2c1=O was read as RGS16-Gao HTS 96, PKD1 kinase inh 5, GALR2 ag -2.9, HSV replic up inactive, INS promoter inh -16, INS promoter inh cell count 130 and HSV replic up primary fold 0.93.
`COc1cc(N/C=C2\CC(=O)NC(C)=C2C#N)cc(OC)c1OC` gave RGS16-Gao HTS 101, PKD1 kinase inh -6, INS promoter inh 29 and INS promoter inh cell count 201.
`CCCn1c(=O)n(C)c(=O)c2c(SCC(=O)NCc3ccco3)nc(C3CC3)nc21` gave RGS16-Gao HTS 102, PKD1 kinase inh -5, GALR2 ag -1.6, HSV replic up inactive, INS promoter inh 3, INS promoter inh cell count 104 and HSV replic up primary fold 0.84.
Screening COc1ccc(C)cc1NC(=O)CSc1nnc(CC(=O)Nc2ccccc2F)n1C returned RGS16-Gao HTS 114, PKD1 kinase inh -2, HSV replic up inactive and HSV replic up primary fold 1.1.
`O=C(Nc1cc(SCCO)cc([N+](=O)[O-])c1)c1ccc(Br)o1` gave RGS16-Gao HTS 265, PKD1 kinase inh -2, GALR2 ag 1.6, HSV replic up inactive, INS promoter inh -19, INS promoter inh cell count 59 and HSV replic up primary fold 0.9.
Screening CCOc1ccccc1N(CC(=O)N1CCOCC1)S(=O)(=O)c1ccccc1 returned RGS16-Gao HTS 104, PKD1 kinase inh -1, GALR2 ag -2.9, INS promoter inh -205 and INS promoter inh cell count 91.
`Cc1csc(NC(=O)c2ccc(S(C)(=O)=O)cc2)n1` gave RGS16-Gao HTS 102, PKD1 kinase inh -11, HSV replic up inactive, INS promoter inh -87, INS promoter inh cell count 45 and HSV replic up primary fold 0.87.
`CCOC(=O)CSc1nnc(CNC(=O)c2ccco2)n1-c1ccc(F)cc1` gave RGS16-Gao HTS 100, PKD1 kinase inh 4, GALR2 ag -1.9, HSV replic up inactive and HSV replic up primary fold 0.88.
`COc1cccc(CC(NC(C)=O)C(=O)NC2CCN(c3nnnn3-c3ccccc3)CC2)c1OC` (stereo not given) gave RGS16-Gao HTS 105, PKD1 kinase inh -6, HSV replic up inactive and HSV replic up primary fold 0.98.
Screening Cc1cc(C2C(=O)CC(=O)CC2c2ccccc2)on1 (stereo not given) returned RGS16-Gao HTS 103, PKD1 kinase inh -4, GALR2 ag -0.5, HSV replic up inactive and HSV replic up primary fold 0.98.
`OCCC1CN(C/C(Cl)=C/c2ccccc2)CCN1C1CCCC1` (stereo not given) gave RGS16-Gao HTS 113, PKD1 kinase inh 3, HSV replic up inactive and HSV replic up primary fold 1.1.
CC1=C(CC(=O)c2ccc(Cl)cc2)C(=O)c2ccccc2C1=O was read as RGS16-Gao HTS 106, PKD1 kinase inh -4, GALR2 ag -2.7, HSV replic up inactive, INS promoter inh 14, INS promoter inh cell count 53 and HSV replic up primary fold 0.79.
S=C(Nc1ccc2c(c1)OCO2)Nc1ccccc1Cl was read as RGS16-Gao HTS 77, HSV replic up inactive and HSV replic up primary fold 0.96.
For COc1ccc(NC(=O)CC2C(=O)N(c3ccccc3)C(=O)N2CCc2cccs2)cc1 (stereo not given) the results were RGS16-Gao HTS 95, PKD1 kinase inh 10, GALR2 ag 0.4, HSV replic up inactive, INS promoter inh -24, INS promoter inh cell count 87 and HSV replic up primary fold 0.96.
`O=C(CSc1nnc(NC2CCCCC2)s1)NC1CCS(=O)(=O)C1` (stereo not given) gave RGS16-Gao HTS 88, PKD1 kinase inh -5, GALR2 ag -1.2, HSV replic up inactive, INS promoter inh 54, INS promoter inh cell count 44 and HSV replic up primary fold 0.94.
Screening CN(C)CCOC(=O)C12CC3CC(CC(C3)C1)C2 returned RGS16-Gao HTS 92, PKD1 kinase inh -9, GALR2 ag -1.6, HSV replic up inactive, INS promoter inh 19, INS promoter inh cell count 110 and HSV replic up primary fold 1.
`O=C1C(Cl)=C(Nc2ccccc2O)C(=O)N1CCc1ccccc1` gave RGS16-Gao HTS 59, PKD1 kinase inh -8, GALR2 ag -1.8, HSV replic up inactive, INS promoter inh -37, INS promoter inh cell count 125 and HSV replic up primary fold 1.2.
Screening O=C1/C(=C\c2cccs2)N=C(c2cccs2)N1Nc1ccccc1 returned RGS16-Gao HTS 100, PKD1 kinase inh -14, GALR2 ag -2.2, INS promoter inh -393 and INS promoter inh cell count 73.
CC1Cc2nc(SCC(=O)Nc3nccs3)n(Cc3ccccc3)c(=O)c2S1 (stereo not given) was read as RGS16-Gao HTS 101, PKD1 kinase inh -20, GALR2 ag -2.4, HSV replic up inactive and HSV replic up primary fold 0.93.
Screening COC1(OC)C(/C=C/c2ccc(C)cc2)C(C#N)(C#N)C1(OC)OC (stereo not given) returned RGS16-Gao HTS 108, PKD1 kinase inh -16, GALR2 ag -1.0, HSV replic up inactive, INS promoter inh 29, INS promoter inh cell count 123 and HSV replic up primary fold 0.75.
For CC(=O)N1Cc2ccccc2C(C)CC12CCCC2 (stereo not given) the results were RGS16-Gao HTS 107, PKD1 kinase inh 3, GALR2 ag -1.6, HSV replic up inactive, INS promoter inh 7, INS promoter inh cell count 93 and HSV replic up primary fold 1.1.
`CCCCN(C)c1c(N2CCC(C(=O)OCC)CC2)c(=O)c1=O` gave RGS16-Gao HTS 101, HSV replic up inactive and HSV replic up primary fold 0.87.
Screening CC(C)C(=O)Nc1nnc(SCC(=O)NCc2ccc3c(c2)OCO3)s1 returned RGS16-Gao HTS 101, PKD1 kinase inh 3, HSV replic up inactive, INS promoter inh -33, INS promoter inh cell count 136 and HSV replic up primary fold 0.98.
Screening Cc1nc(Nc2ccccc2)sc1-c1ccccc1 returned RGS16-Gao HTS 101, PKD1 kinase inh -11, GALR2 ag -0.8, HSV replic up inactive, INS promoter inh 53, INS promoter inh cell count 107 and HSV replic up primary fold 0.9.
Screening COc1cc(/C=N/NC(=S)NCc2ccccc2)ccc1OCC#N returned RGS16-Gao HTS 98, PKD1 kinase inh -12, GALR2 ag -0.6, HSV replic up inactive, INS promoter inh -46, INS promoter inh cell count 117 and HSV replic up primary fold 0.92.
Screening CCn1c(SCC(=O)Nc2nccc(C)n2)nc2ccccc21 returned RGS16-Gao HTS 106, HSV replic up inactive and HSV replic up primary fold 1.2.
Screening CC(=O)NC(Cc1ccccc1)C(=O)OCC(=O)c1ccc(Cl)cc1 (stereo not given) returned RGS16-Gao HTS 107, PKD1 kinase inh -11, GALR2 ag -1.1, HSV replic up inactive, INS promoter inh -26, INS promoter inh cell count 90 and HSV replic up primary fold 0.92.
`O=C(COC(=O)C12CC3CC(CC(Br)(C3)C1)C2)Nc1cccnc1Cl` gave RGS16-Gao HTS 98, PKD1 kinase inh -9, HSV replic up inactive and HSV replic up primary fold 0.94.
For Cc1ccccc1Nc1nnc(SCC(=O)NCc2cccs2)s1 the results were RGS16-Gao HTS 102, PKD1 kinase inh 13, GALR2 ag -0.9, HSV replic up inactive, INS promoter inh -17, INS promoter inh cell count 100 and HSV replic up primary fold 0.96.
O=C(NCC1CCCO1)c1ccccn1 (stereo not given) was read as RGS16-Gao HTS 99, PKD1 kinase inh -2, GALR2 ag -1.0, HSV replic up inactive, INS promoter inh 75*, INS promoter inh cell count 54* and HSV replic up primary fold 1.1.
Screening Cc1cc(=O)n2c(C)n[nH]c2n1 returned RGS16-Gao HTS 111, PKD1 kinase inh -1, GALR2 ag 2.6, HSV replic up inactive, INS promoter inh -23, INS promoter inh cell count 148 and HSV replic up primary fold 0.78.
`COc1ccc(OC)c(S(=O)(=O)NCC(=O)O)c1` gave RGS16-Gao HTS 96, HSV replic up inactive and HSV replic up primary fold 0.94.
For O=C1COc2ccc(C(=O)COC(=O)CNC(=O)c3ccccc3)cc2N1 the results were RGS16-Gao HTS 108, PKD1 kinase inh 0, HSV replic up inactive, INS promoter inh -50, INS promoter inh cell count 40 and HSV replic up primary fold 0.83.
For COc1ccc(C(=O)CSc2nnn(-c3cccc(NC(C)=O)c3)n2)cc1 the results were RGS16-Gao HTS 99, HSV replic up inactive and HSV replic up primary fold 0.87.
O=C(C1CCCO1)N1CCN(C(=S)Nc2cccc(Cl)c2)CC1 (stereo not given) was read as RGS16-Gao HTS 125, PKD1 kinase inh -2, GALR2 ag -0.3, HSV replic up inactive and HSV replic up primary fold 0.93.

Sorted by heavy-atom count (low to high): six of the compounds above
Screening Cc1cc(=O)n2c(C)n[nH]c2n1 returned RGS16-Gao HTS 111, PKD1 kinase inh -1, GALR2 ag 2.6, HSV replic up inactive, INS promoter inh -23, INS promoter inh cell count 148 and HSV replic up primary fold 0.78.
O=C(NCC1CCCO1)c1ccccn1 (stereo not given) was read as RGS16-Gao HTS 99, PKD1 kinase inh -2, GALR2 ag -1.0, HSV replic up inactive, INS promoter inh 75*, INS promoter inh cell count 54* and HSV replic up primary fold 1.1.
O=C(C1CCCO1)N1CCN(C(=S)Nc2cccc(Cl)c2)CC1 (stereo not given) was read as RGS16-Gao HTS 125, PKD1 kinase inh -2, GALR2 ag -0.3, HSV replic up inactive and HSV replic up primary fold 0.93.
For Cc1ccccc1Nc1nnc(SCC(=O)NCc2cccs2)s1 the results were RGS16-Gao HTS 102, PKD1 kinase inh 13, GALR2 ag -0.9, HSV replic up inactive, INS promoter inh -17, INS promoter inh cell count 100 and HSV replic up primary fold 0.96.
Screening CC(=O)NC(Cc1ccccc1)C(=O)OCC(=O)c1ccc(Cl)cc1 (stereo not given) returned RGS16-Gao HTS 107, PKD1 kinase inh -11, GALR2 ag -1.1, HSV replic up inactive, INS promoter inh -26, INS promoter inh cell count 90 and HSV replic up primary fold 0.92.
For COc1ccc(C(=O)CSc2nnn(-c3cccc(NC(C)=O)c3)n2)cc1 the results were RGS16-Gao HTS 99, HSV replic up inactive and HSV replic up primary fold 0.87.

Source: PubChem (several laboratories)
